High-throughput results (PubChem BioAssay)
Anthrax LT inh = qHTS Assay for Anthrax Lethal Toxin Internalization; Cells, anthrax lethal toxin internalization, FRET ratio (460/530); Potency, µM (top dose mostly 40 µM), inactives show at the top dose activity change, negative = inhibition, usual class: inhibitors; hit rate 0.67% among 70,000; AID 912, 2007; active = well fitted falling ratio curve with the 530 nm signal flat; inconclusive = other ratio curves, or a change in one channel alone; inactive = flat curves in the ratio and both channels; the % refers to the ratio; further: on the % scale 0 is the no-effect control and ±100 the full control effect; nearly all actives have a fitted effect of over 50% in size; tested in ME-180 cells; beta-lactamase reporter
Prx2 Sm inh = Schistosoma Mansoni Peroxiredoxins (Prx2) | Potency, µM | Schistosoma mansoni peroxiredoxin 2 (Prx2) | AID 448, 2006 | S. mansoni Prx2 activity coupled to TGR/GSH (TGR is thioredoxin glutathione reductase), NADPH fluorescence loss, qHTS; some inactives read as strong as hits | hit rate 0.07% among 65,000; active means full or partial inhibition curve with a strong effect at the top dose; inconclusive means weaker partial or single-point curve; inactive means no accepted curve; further: series up to 57 µM; many of its hits are not listed in these tables
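Enzyme mix: 100 uM NADPH, 25 nM TGR, 700 uM GSH, 50 nM Prx2 in 100 mM phosphate pH 7.4, 10 mM EDTA, 0.01% Tween-20. 15 min RT with compound; NADPH/GSH added, H2O2 starts reaction; NADPH fluorescence read 8 min.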
Numbers without * were called inactive; ? = inconclusive; · = not tested or not shown; & = joins results of further samples; [ ] = remark or other dose. Potency means the concentration at half of the fitted maximal effect. Not all compounds are listed; the hit share may differ from the screen's.

SMILES	Anthrax LT inh	Prx2 Sm inh
CC(=O)c1c(C)n(-c2ccc(N(C)C)cc2)c2ccc(OCC(N)=O)cc12	?	>57
COc1ccc(OCC(=O)N2CC3(C)CC2CC(C)(C)C3)cc1 (centres undefined)	-3%	>57
c1ccc2c(c1)nc1n2CN(Cc2ccc3c(c2)OCO3)CN1	·	>57
CC(C)CCNC(=O)CN(CC1CCCO1)C(=O)CCC(=O)Nc1ccccn1 (centres undefined)	11%	>57
Cc1nc2ccccc2c2oc(C(=O)NCc3ccccn3)cc12	-7%	>57
COC(=O)N1CCN(c2ccc(Cl)c(Cl)c2)CC1	-20%	>57
CCc1nnc(NC(=O)CSc2nnc(CNc3ccc(F)cc3)n2C2CCCCC2)s1	-6%	>57
Cc1cc(NC(=O)CSc2nc(-c3ccco3)cc(C(F)(F)F)n2)no1	?	>57
COC(=O)c1[nH]c2cc(C)ccc2c1NC(=O)CN1CCN(C(=O)c2ccco2)CC1	-18%	>57
Cc1c(Cc2ccccc2)c(=O)oc2cc(OCc3nn[nH]n3)ccc12	?	>57
O=C(CCS(=O)(=O)c1cccc2nsnc12)NCc1ccccc1	-3%	>57
Cc1ccccc1-c1nc(N(C)Cc2ccco2)c2ccccc2n1	?	>57
Cc1ccccc1C1CC(c2ccccc2OC(F)F)Nc2ncnn21 (centres undefined)	-17%	>57
CCCCc1ccc2nc(NC(=O)OC)[nH]c2c1	?	>57
O=C(Cn1cc2c(n1)CCCC2)NCC1CCCO1 (centres undefined)	6%	>57
CCN(CC)CCCC(C)Nc1nc(C)cc(Nc2ccc3nc(C)cc(N)c3c2)n1 (centres undefined)	3%	·
CC(C)N1CC(C(=O)Nc2ccc(Br)c(Cl)c2)CC1=O (centres undefined)	6%	>57
COc1ccc(C2C(C(=O)c3cc4cccc(OC)c4o3)=C(O)C(=O)N2CCCN(C)C)cc1OC (centres undefined)	2%	>57
O=C(CSc1nnc(-c2ccncc2)n1-c1ccc(Cl)cc1)N1CCOCC1	?	>57
Cc1ccc(Cn2cnc3c(nnn3Cc3ccc(Cl)cc3)c2=O)cc1	-10%	>57

Ordered by number of heavy atoms (falling): part of the list above
SMILES	Anthrax LT inh	Prx2 Sm inh
CC(C)CCNC(=O)CN(CC1CCCO1)C(=O)CCC(=O)Nc1ccccn1 (centres undefined)	11%	>57
CC(=O)c1c(C)n(-c2ccc(N(C)C)cc2)c2ccc(OCC(N)=O)cc12	?	>57
c1ccc2c(c1)nc1n2CN(Cc2ccc3c(c2)OCO3)CN1	·	>57
COC(=O)N1CCN(c2ccc(Cl)c(Cl)c2)CC1	-20%	>57

Additional records:
SMILES	Anthrax LT inh	Prx2 Sm inh
COc1ccc2[nH]cc(CCNc3cc(-c4ccc(C(=O)N(C)C)cc4)ncn3)c2c1	1%	>57
C=CCOc1cccc(C2C(C(=O)c3ccco3)=C(O)C(=O)N2CCN(CC)CC)c1 (centres undefined)	?	>57
Cc1c(NC(=O)c2ccc(Br)o2)c(=O)n(-c2ccccc2)n1C	-5%	>57
COc1cccc2sc(NC(=O)c3ccc(S(=O)(=O)N4CCOCC4)cc3)nc12	-1%	>57
Nc1ccc2c(c1)COc1ccccc1O2	-5%	>57
CCN(CC)S(=O)(=O)c1ccc(-c2nnc(SCC(=O)N3CCOCC3)o2)cc1	-6%	>57
CCc1nc(SCc2cc(Cl)ccc2OC)n[nH]1	?	>57
Cc1ccc(-c2nnn(CCC(=O)N3CCCCC3C)n2)cc1 (centres undefined)	-4%	>57
CCCCC(C=O)CC (centres undefined)	0%	·
Cc1ccc(C2C(C(=O)c3cccs3)=C(O)C(=O)N2CCN2CCOCC2)o1 (centres undefined)	-1%	>57
COc1ccc(C(=O)NCC(c2cccnc2)N2CCN(c3ccccc3OC)CC2)cc1OC (centres undefined)	13%	>57
O=C(Nc1nnc(COc2ccc(F)cc2)s1)c1cccs1	4%	>57
Cc1nn(-c2ccccc2)c2sc(C(=O)OCC(=O)N3CCCCC3)cc12	-18%	>57
N[C@@H](Cc1cccnn1)C(=O)O	-5%[8 µM]	>57
O=C(c1ccco1)N1CCN(C(c2ccccc2Cl)c2nnnn2Cc2cccs2)CC1 (centres undefined)	16%	>57
COc1c(F)c(F)c(C(=O)Nc2ccc3oc(-c4ccncc4)nc3c2)c(F)c1F	-1%	>57
CC(=O)NCCOC(=O)Nc1cccnc1	7%	>57
CCn1c(SCC(=O)NCc2ccco2)nc2c(c1=O)SC(C)C2 (centres undefined)	12%	>57
CC(NCc1ccco1)C(=O)N1CCc2ccccc2C1 (centres undefined)	4%	>57
CCOc1ccccc1NC(=O)CN(c1nccs1)S(=O)(=O)c1ccc(N)cc1	5%	>57

The list goes on; it opens with the 2 that closed the last part.
SMILES	Anthrax LT inh	Prx2 Sm inh
CC(NCc1ccco1)C(=O)N1CCc2ccccc2C1 (centres undefined)	4%	>57
CCOc1ccccc1NC(=O)CN(c1nccs1)S(=O)(=O)c1ccc(N)cc1	5%	>57
Cc1ccc2nc(C(F)OC(F)(F)F)[nH]c2c1 (centres undefined)	7%	>57
Cc1ccc(S(=O)(=O)N2CCOCC2)cc1C(=O)NCc1cn2ccsc2n1	-3%	>57
COc1ccc(NC(=O)c2cc(OC)c(OC)cc2OC)c(S(=O)(=O)N2CCOCC2)c1	4%	>57
O=C1CC(Sc2nnc(-c3ccccc3O)o2)C(=O)N1c1ccccc1 (centres undefined)	?	>57
COC(=O)[C@@]1(Cc2ccc(OC)cc2)[C@H]2c3cc(C(=O)N4CCCC4)n(Cc4ccc(S(C)(=O)=O)cc4)c3C[C@H]2CN1C(=O)c1ccccc1	5%	>57
c1nc(NCC2(N3CCOCC3)CCCCC2)c2ccsc2n1	?	>57
C[C@H](CCC(=O)O)[C@H]1CC[C@@H]2[C@H]3[C@@H](C[C@@H](O)[C@]21C)[C@]1(C)CC[C@H](O)C[C@@H]1C[C@@H]3O	2%[8 µM]	>57
O=C(NCc1cccc(Cl)c1)c1ccc2c(c1)OCO2	12%	>57
CCCN1CCc2cc(O)cc3c2[C@H]1Cc1ccc(O)c(O)c1-3	?	>26
N#CCC(=O)Nc1sc2c(c1C(N)=O)CCCC2	23%	>57
Cc1ccc(Nc2nc(OC(C(F)(F)F)C(F)(F)F)nc(N3CCOCC3)n2)cc1	?	·
Nn1c(SCC(=O)Nc2ccc(F)cc2)nnc1C1CCCCC1	-6%	>57
CC(=O)NS(=O)(=O)c1ccc(NC(=O)c2ccccc2F)cc1	2%	·
O=C(N1CCCC1)n1c(Cc2ccccc2)nc2ccccc21	-9%	>57
O=C(c1ccncc1)N1CCC2(CCN(Cc3cc(C(F)(F)F)cc(C(F)(F)F)c3)CC2)CC1	11%	>57
COc1cccc(Oc2nc3ncn(Cc4ccccc4)c3c(=O)n2C)c1	12%	>57
CCc1nc(N2CCCC(C)C2)c2oc3ccccc3c2n1 (centres undefined)	-1%	>57
COC(=O)c1c(C)cc(OC(C)=O)c(C)c1OC(C)=O	-2%	·
COc1ccc2[nH]c(=O)c(CN(Cc3cccs3)Cc3nnnn3C(C)(C)C)cc2c1	-2%	>57
CC(C)CC(NS(=O)(=O)c1ccc2c(c1)oc(=O)n2C)C(=O)NC1CCCc2ccccc21 (centres undefined)	-2%	>57
COC(=O)c1cc(COc2ccc3oc(C)c(C(=O)OC)c3c2)c(C)o1	?	>57
CCc1ccc(-c2nnn(CCC(=O)OC)n2)cc1	-11%	>57
CS(=O)(=O)N1CCN(C(=O)Cc2cccs2)CC1	6%	>57
Cc1ccc(-c2nc(CS(=O)CC(=O)NCCN3CCCC3)c(C)o2)cc1 (centres undefined)	10%	>57
Cc1cc(NC(=O)CC2CCCC2)n(-c2nc3ccccc3[nH]2)n1	-4%	>57
CCOC(=O)c1ccccc1NC(=O)CSc1nnc(COc2ccccc2)n1CC	-5%	>57
c1ccc(C2CC(c3cccs3)n3nnnc3N2)cc1 (centres undefined)	-3%	>57
Cc1cc(O)c(C(C)C)cc1NS(=O)(=O)c1ccccc1	-13%	>57
COc1cc2c(cc1OC)-c1c(OC)c(OC)cc3ccnc(c13)C2=O	?	>57
CCCc1cc(=O)[nH]c(SCC(=O)N2CCN(c3ccccc3)CC2)n1	?	>57
CCN1CCN(S(=O)(=O)Cc2ccccc2)CC1	-9%	>57
CN(C)C(=O)N1CCCC(C(=O)NCc2ccc(F)cc2Cl)C1 (centres undefined)	10%	>57
C[C@@H](C[N+](C)(C)C)OC(N)=O	-8%[3.58 µM]	>57&>57
O=C(Cn1cnc2ccccc2c1=O)NC1CCCc2ccccc21 (centres undefined)	?	>57
CCNc1nc(NC(C)C)nc(Nn2cnnc2)n1	-12%	>57
Cc1noc(C)c1-c1nc(N2CCNCC2)c2ccccc2n1	3%	>57
O=C(NCCCc1ccccc1)C1CCN(c2nnc(-n3cccc3)s2)CC1	-18%	>57
CCNC(=O)NC1(C(=O)Nc2ccc3c(c2)CCC3)CCCCC1	3%	>57
COC(=O)C1(Cc2ccccc2)C2c3cc(C(=O)N4CCCC4)n(Cc4ccc(OC(F)(F)F)cc4)c3CC2CN1C(=O)c1ccccc1 (centres undefined)	?	>57
CCOC(=O)c1ccccc1NC(=O)CN(c1ccccc1)S(=O)(=O)N(C)C	-19%	>57
Cc1nc2sc(-c3ccccc3)cc2c(=O)n1-n1cccc1	-19%	>57
CC(C)(C)c1ccc(NC(=O)CC2(C(F)(F)F)OCCO2)cc1	-4%	>57
C=CCn1c(=O)c2ccccc2n2c(SCc3c(C(=O)OCC)oc4ccccc34)nnc12	-5%	>57
Cc1c(NC(=O)COc2ncnc3c(Cl)cc(Cl)cc23)c(=O)n(-c2ccccc2)n1C	-2%	>57
CC1=C(C(=O)OCc2ccccc2)C(c2ccccn2)c2c(n(C)c(=O)n(C)c2=O)N1 (centres undefined)	-13%	>57
Cn1cnnc1SCC(=O)Nc1sccc1C#N	7%	>57
CCc1nnc(NC(=O)CCC(=O)N2CCN(CCOc3ccc(C)cc3)CC2)s1	?	>57
O=C(CCCCn1c(=O)[nH]c2ccccc2c1=O)N1CCN(c2ncccn2)CC1	-8%	>57
N#Cc1nc(-c2ccccc2F)oc1NCc1cccc2c1OCO2	11%	>57
CC(C)N1CC2=C(OC(N)=C(C#N)C2c2cccnc2)/C(=C/c2cccnc2)C1 (centres undefined)	6%	>57
CCN(CC)c1ccc(C2NC(=O)NC(C)=C2C(=O)Nc2ccccc2)cc1 (centres undefined)	-4%	>57
O=C(O)C1C2C=CC3(CN(C/C=C/c4ccccc4)C(=O)C13)O2 (centres undefined)	2%	·
Cc1cc(C)nc(SCC(=O)Nn2cnnc2)n1	?	>57
COc1cc(SC)ccc1C(=O)Nc1ccc2c(c1)OCCO2	10µM*	>57
O=C(O)c1cccc(NC(=O)c2cccc(S(=O)(=O)N3CCCCC3)c2)c1	-20%	>57
O=C(c1ccco1)N1CCN(C(c2ccccc2)c2nnnn2Cc2cccs2)CC1 (centres undefined)	0%	>57
CCCCNC(=O)c1cc(-c2ccc(OC)cc2)on1	10%	>57
CCCN1C(=O)C2(/C(=C(\O)c3ccc4c(c3)OCCO4)C(=O)C(=O)N2CCCOC)c2ccccc21 (centres undefined)	?	>57
O=c1[nH]c(=O)n([C@H]2C[C@H](O)[C@H](CO)O2)cc1/C=C\Br	4%	>57
COc1cc2cc(C)c(SCC(=O)N3CCOCC3)nc2cc1OC	13%	>57
(cont.)
SMILES	Anthrax LT inh	Prx2 Sm inh
Nc1nc(SCc2ccc3c(c2)OCCO3)n[nH]1	-4%	>57
CCOC(=O)c1sc2ccc(S(=O)(=O)N3CCOCC3)cc2c1N	12%	>57
c1ccc(Nc2nc(-c3ccoc3)nc3ccccc23)cc1	?	>57
COc1ccc(C2C(C(=O)NCc3cccnc3)c3ccccc3C(=O)N2C)cc1OC (centres undefined)	9%	>57
Cc1ccc(OCC(O)CNS(=O)(=O)c2ccccc2C(=O)N2CCCCC2)cc1 (centres undefined)	-3%	>57
CC(C)O	17%	·
CCCC1C2CN(C(C)=O)CC=C2C(C#N)=C(N)C1(C#N)C#N (centres undefined)	-2%	>57
O=S(=O)(c1ccccc1)N1CCC[C@@]2(CCN(Cc3cc(C(F)(F)F)cc(C(F)(F)F)c3)C2)C1	0%	>57
CC(=O)NCCOc1ccc(C(=O)O)cc1	·	>57
c1cnc(N2CCN(Cc3ccc4c(c3)OCO4)CC2)nc1	?	>57&>57&>57
c1ccc(-c2n[nH]c3ccccc23)cc1	-3%	>57
CCCc1nc(-c2ccccc2O)n(-c2ccccc2)n1	-20%	>57
COc1cc2c(cc1OC)C(C(=O)O)C(c1ccc(C)o1)N(C)C2=O (centres undefined)	0%	>57
Nc1ccccc1C(=O)OCCOc1ccccc1	-17%	·
CCC(=O)N1c2ccc(S(=O)(=O)CCC(=O)N3CCN(c4ccccc4)CC3)cc2CC1C (centres undefined)	-4%	>57

Given with values under each structure: part of the list above.
Each structure is followed by: Anthrax LT inh | Prx2 Sm inh
CC(=O)NCCOc1ccc(C(=O)O)cc1
    · | >57
c1cnc(N2CCN(Cc3ccc4c(c3)OCO4)CC2)nc1
    ? | >57&>57&>57
c1ccc(-c2n[nH]c3ccccc23)cc1
    -3% | >57
CCCc1nc(-c2ccccc2O)n(-c2ccccc2)n1
    -20% | >57
